GLA inh pH 4.5: alpha-galactosidase A (human) inhibition, pH 4.5; activity change, negative = inhibition, % at 105 µM; 230,000 tested, under 10 active; purified enzyme, 4-MU-alpha-Gal fluorescence, pH 4.5; P06280; inconclusive = small, poorly fitted or top-dose-only inhibition, or a rising curve; inactive = flat fitted curve, though single readings scatter; no compound was filed as active;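 further: 0% = full activity with enzyme and -100% = basal without enzyme; dose as in the result columns while the protocol names 77 µM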
Target sequence (P06280 whole entry, looked up): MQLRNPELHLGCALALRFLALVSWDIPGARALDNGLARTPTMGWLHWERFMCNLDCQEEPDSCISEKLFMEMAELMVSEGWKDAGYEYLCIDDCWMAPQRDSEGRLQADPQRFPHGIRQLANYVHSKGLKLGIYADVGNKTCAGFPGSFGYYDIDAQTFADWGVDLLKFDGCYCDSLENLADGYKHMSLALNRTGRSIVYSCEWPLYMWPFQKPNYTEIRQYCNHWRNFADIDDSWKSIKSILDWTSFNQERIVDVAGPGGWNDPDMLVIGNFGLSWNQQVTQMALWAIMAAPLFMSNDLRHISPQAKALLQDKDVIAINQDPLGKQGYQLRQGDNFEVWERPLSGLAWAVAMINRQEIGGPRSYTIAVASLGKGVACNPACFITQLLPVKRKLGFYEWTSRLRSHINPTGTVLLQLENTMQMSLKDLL
Rango complex inh: Rango-importin beta binding inhibition. Potency, µM (doses to about 92.2 µM), for the others: at the top dose inhibition of complex formation. Q14974. AID 540263. Rango CFP/YFP FRET sensor + importin beta, 45 min. 0.031% of 340,000 active; active = rising FRET ratio curve, often small or poorly fitted; inconclusive = mostly compound fluorescence or quenching in the first reads; inactive = flat curves in all reads;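 further: potency means the concentration at half of the fitted maximal effect; 0% = DMSO wells and 100% = buffer wells lacking importin beta; nearly all actives have a fitted effect of over 15% in size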
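FRET biosensor Rango (snurportin 1 IBB between N-terminal EYFP and C-terminal Cerulean), 50 nM in PBS/1 mM DTT/0.02% Tween-20/0.1% BSA, preincubated 5 min RT with compound; 0.125 microM importin beta added, 45 min RT, CFP/YFP FRET ratio read.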
miR-21 FLuc: raises the signal of a miR-21 reporter; 340,000 tested, under 10 active; HeLa miR-21 FLuc reporter, luciferase, 48 h; Potency, µM (top dose mostly 38.3 µM), inactives show at the top dose reporter change, positive = more light; active = well fitted rising curve with a large enough effect; inconclusive = small, poorly fitted or top-dose-only effect; inactive = no such curve, though single readings can be large or run the other way;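 further: % of control where 0% means no effect; miR-21 action dims this reporter so a rising signal means less miR-21 action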
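Using DMEM plus 10% FBS, HeLa miR-21-FLuc cells are incubated with test compounds (final up to about 40uM) for 48 hours; firefly luciferase signal is then imaged following reagent-mediated lysis.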
Rango release inh: prevents RanGTP from dissociating the Rango-importin beta complex; Potency, µM (doses to about 46.1 µM), for inactives: at the highest dose activity change, negative = inhibition; Biochemical FRET Rango-importin beta, RanGTP-induced dissociation; AID 540253; 0.071% of 340,000 active; O95149+P62826; active means falling FRET ratio curve, often poorly fitted, with flat reads before Ran was added; inconclusive means other falling curves, or compound fluorescence or quenching; inactive means flat or rising ratio curve;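 further: potency means the concentration at half of the fitted maximal effect; % of control where 0% means no effect; nearly all actives have a fitted effect of over 45% in size; -100% = wells without RanGTP and RCC1; the record marks most hits as doubtful in a second field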
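Quantitative HTS using a FRET biosensor: 0.1 uM Rango, 0.25 uM importin beta, 0.6 uM Ran, 2 mM GTP, 0.2 uM RCC1 final, PBS with DTT, Tween-20 and BSA. Post-read taken 45 min after Ran addition.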
Active calls of the source: *; ? = inconclusive; / = not tested or not shown; [ ] = dose if it differs, or a comment. Only part of the results is shown (hit frequency here may not be typical).

SMILES	GLA inh pH 4.5	Rango complex inh	miR-21 FLuc	Rango release inh
O=C(O/N=C/c1ccc2c(c1)OCO2)c1ccc([N+](=O)[O-])cc1	2	2.5%	-1%	22%
CCc1[nH]nc2c1C1(CCN(C(=O)OCc3ccccc3)CC1)C(C#N)=C(N)O2	1	3.4%	-1%[7.66 µM]	-7%
Cc1ccc(N(C)C(=O)C2CCN(S(=O)(=O)c3ccc4c(c3)oc(=O)n4C)CC2)cc1	-6	-3.2%	3%	-3%
N#CC1(c2c(O)nc3n(c2=O)CCCS3)CCCCC1	6	-9.2%	3%	2%
COc1ccc(NS(=O)(=O)NC(=O)c2c(C)n(C)c3ccccc23)cc1	/	0.8%	-2%	13%
CCOC(=O)c1c(C)[nH]c(C)c1C(=O)COC(=O)[C@@H](NC(=O)c1ccccc1OCC)C(C)C	-21	1.3%	-4%	-1%
COc1ccc(CN2CCSCC2)cc1O	3	-1.1%	-2%	13%
CCOc1ncccc1C(=O)OCC(=O)NC(=O)c1ccccc1	/	1.6%	/	12%
O=C(NC(Cc1ccccc1)C(=O)O)C1CCN(S(=O)(=O)c2cccc(C(F)(F)F)c2)CC1 (centres undefined)	/	-2.9%	0%	1%
Cc1ccc(C)c(NC(=O)c2ncn[nH]2)c1	-7	0.2%	-6%	9%
COc1ccc(C(=O)Nc2c(N)nc(SCC(=O)Nc3ccc(NC(C)=O)cc3)[nH]c2=O)cc1	/	3.5%	-1%	-6%
CC1(C)NC(=O)N(CC(O)CN(c2ccccc2)S(=O)(=O)c2ccccc2[N+](=O)[O-])C1=O (centres undefined)	/	-0.3%	-1%	1%
CCCCNc1c(-c2ccc(-c3ccc(OC)cc3)c(OC)c2)nc2ccccn12	/	?	/	?
CCOC(=O)CC1C(=O)NCCN1S(=O)(=O)c1ccc(F)cc1 (centres undefined)	6	-1.8%	2%	-9%
O=C(Cc1ccccc1[N+](=O)[O-])Nc1cccc(S(=O)(=O)NC2=NCCCCC2)c1	/	-3.8%	/	-1%
COc1ccc(/C=C2/SC(=S)N(CCC(=O)N3CCN(C)CC3)C2=O)cc1	/	1.1%	-4%	2%
Cc1ccc(S(=O)(=O)N2CCOCC2)cc1C(=O)N1CCN(S(=O)(=O)c2cccs2)CC1	-1	4.2%	1%	1%
COc1ccc(S(=O)(=O)N(C)CC(=O)Nc2ccc3c(c2)OCCO3)cc1OC	-4	1.1%	-12%	-12%
CCc1nc(N2CCN(C(=O)c3ccco3)CC2)c2c3c(sc2n1)CCCC3	0	1.4%	9%	3%
Cc1ccc(O)c(-c2cc(C(F)(F)C(F)F)[nH]n2)c1	-7	0.6%	-12%	-10%
COc1cccc(CN2CC(C(=O)N3CCOCC3)CCC2=O)c1 (centres undefined)	/	-2.0%	-28%	-8%
CCO[C@@H]1OC(C(=O)N2CCN(C)CC2)=C[C@H](C(C)(C)C)[C@H]1CCCO	4	-1.8%	-1%	9%
O=[N+]([O-])c1cc(S(=O)(=O)N2CCOCC2)ccc1OCc1cccc(Cl)c1	/	-1.3%	/	2%
O=C(NNS(=O)(=O)c1ccccc1[N+](=O)[O-])c1cccc([N+](=O)[O-])c1	-8	-0.3%	-9%	0%
CC1CCCC(NC(=O)c2ccncc2)C1C (centres undefined)	/	-3.0%	-9%	1%
Cc1ccc(C(=O)N2CCn3c(C)ccc3C2C)cc1 (centres undefined)	-2	?	-6%	?
C[C@H](CO)N1C[C@H](C)[C@@H](CN(C)C(=O)Nc2ccc3c(c2)OCO3)Oc2ccc(NC(=O)CCN3CCOCC3)cc2C1=O	/	-4.7%	/	1%
CC(=O)c1ccc(Cc2ccccc2)cc1	3[21.1 µM]	-0.2%	-1%	14%
COc1ccc(C(=O)Oc2c(CN3CCOCC3)cc(Cl)c3cccnc23)cc1	-18	-1.1%	?	2%
COc1ccc2nc(NC(=O)CSc3nc4cccnc4n3C)sc2c1	5	-2.6%	-7%	-5%
CCOC(=O)NC(C(F)(F)F)(C(F)(F)F)P(=O)(c1ccccc1)c1ccccc1	1	0.3%	3%	2%
CC(C)C[C@H]1CN=C(Nc2ccccc2)N1CC1CCCC1	/	2.1%	4%	-20%
CN1CCc2c(sc3c2c(=O)n(-c2ccc(Cl)cc2)c2nncn32)C1	1	?	-3%	-19%
COc1ccc(C2=CC(=O)C=CC2=O)cc1	-3	/	?	/
O=C(OCC(=O)N1CCOCC1)c1ccccc1OCc1ccccc1Cl	/	-1.2%	/	34%
COC(=O)C1(Cc2ccccc2)NC(c2ccc(F)cc2)C2C(=O)N(C)C(=O)C21 (centres undefined)	2	4.0%	-10%	1%

Continued (5 carried over from the part before).
SMILES	GLA inh pH 4.5	Rango complex inh	miR-21 FLuc	Rango release inh
CC(C)C[C@H]1CN=C(Nc2ccccc2)N1CC1CCCC1	/	2.1%	4%	-20%
CN1CCc2c(sc3c2c(=O)n(-c2ccc(Cl)cc2)c2nncn32)C1	1	?	-3%	-19%
COc1ccc(C2=CC(=O)C=CC2=O)cc1	-3	/	?	/
O=C(OCC(=O)N1CCOCC1)c1ccccc1OCc1ccccc1Cl	/	-1.2%	/	34%
COC(=O)C1(Cc2ccccc2)NC(c2ccc(F)cc2)C2C(=O)N(C)C(=O)C21 (centres undefined)	2	4.0%	-10%	1%
Cc1cccc2nc(C(F)(F)F)nc(=O)n12	9	1.6%	-1%	6%
Cc1cc(C)n(C(=O)CNC(=O)c2cccc(F)c2)n1	/	-2.1%	0%	1%
Cc1ccc(-n2ncc3c(=O)[nH]c(SC(C)C)nc32)cc1	2	-0.7%	-9%	-9%
COc1ccc(CC(=O)NNC(=O)c2c(-c3ccccc3Cl)noc2C)cc1OC	-8	4.3%	1%	-10%
Cc1ccc(NC(=O)COC(=O)/C=C/c2ccco2)cc1S(=O)(=O)N(C)C	5	-9.6%	-2%	2%
C[C@@H]1CN(S(=O)C(C)(C)C)[C@@H](CCO)/C1=C\CCO (some centres undefined)	/	-0.5%	/	0%
CCCCN(CCCC)S(=O)(=O)c1ccc(C(=O)Nc2nnc(CSC)o2)cc1	8	2.1%	-1%	-3%
CCOC(=O)c1c(-n2c(C)cc(C=O)c2C)sc2c1CCCC2	-10	-2.7%	-5%	8%
CCCCOc1ccc(C(=O)NCC(=O)NC2CCC(C)CC2)cc1 (centres undefined)	/	0.6%	/	5%
CCOC(=O)C1(Cc2ccc(OC)cc2)CCN(C(=O)c2cc3ccccc3[nH]2)CC1	-2	1.3%	-24%	27%
CN(CC(=O)Nc1c(Cl)cccc1Cl)C(=O)CC1Sc2ccccc2NC1=O (centres undefined)	/	-5.4%	/	24%
O=C(NCC1CCCO1)/C(=C\c1ccco1)NC(=O)c1ccc(Cl)cc1 (centres undefined)	7	0.8%	-3%	1%
O=C(NC1CCCCCCC1)c1cccs1	/	0.5%	-35%	2%
CCCCCCC(=O)Nc1nc(C)c(-c2csc(Nc3cc(Cl)ccc3C)n2)s1	7	-4.7%	-2%	-11%
COc1ccc(OC)c(NC(=O)COc2coc(CN3CCCc4ccccc43)cc2=O)c1	/	0.1%	/	22%
O=C(O)c1ccccc1C(=O)OCCCc1ccncc1	/	-1.6%	/	6%
COc1cc(/C=C/c2nc3ccccc3s2)cc(OC)c1O	-13	?	-73%	?
COC(=O)c1ccc(NC(=O)CN2C(=O)CCC2=O)cc1	8	-1.4%	-4%	2%
Cc1ccc(C(=O)COC(=O)C(C)N2C(=O)C3C4C=CC(C4)C3C2=O)cc1 (centres undefined)	-2	1.7%	-1%	1%
CCOC(=O)N1CCC(NS(=O)(=O)c2cc3c(cc2Cl)NC(=O)CO3)CC1	-2	-0.4%	1%	1%
COc1ccc(CN(C)C(=O)C(CCSC)NS(=O)(=O)c2ccc3c(c2)OCCO3)c(OC)c1OC (centres undefined)	/	-0.2%	/	17%
Cc1noc(C)c1C(=O)N1CCCC(N2CCN(c3cccc(C(F)(F)F)c3)CC2)C1 (centres undefined)	/	0.1%	4%	-6%
CCC(=O)c1ccc(OCC(=O)Nc2nn3cnnc3s2)cc1	-2	-0.2%	3%	8%
CN(C)S(=O)(=O)c1cccc(NC(=O)COC(=O)COc2ccc(Br)cc2)c1	-9	-0.5%	0%	2%
Cn1c(SCC2CCCO2)nnc1-c1cccc([N+](=O)[O-])c1 (centres undefined)	4	-3.5%	1%	-3%
O=C(O)CCC(=O)NN1C(=O)c2ccccc2NC1c1ccc(F)cc1 (centres undefined)	22	-5.1%	-1%	0%
CCCNC1(C(N)=O)CCN(Cc2ccccc2)CC1	/	?	/	1%
O=C(CNC(=O)c1ccc(Cl)cc1)NNC(=O)c1ccc(Br)cc1	/	1.5%	/	1%
CCNC(=O)CCS(=O)(=O)c1ccc2ccccc2c1	-9	?	-2%	1%
CCCc1nc2ccccc2c(C(=O)OCC(=O)NCc2ccco2)c1CC	2	-0.8%	10%	10%
N#Cc1c2n(c(=S)n(-c3ccc(OC(F)F)cc3)c1=O)CCCCC2	-5	3.4%	-1%	0%
Cc1cc(C)cc(N(CCC#N)C(=O)COC(=O)CCc2c[nH]c3ccccc23)c1	/	-1.9%	/	2%
CCCCN(Cc1ccco1)C(=O)c1cc2c(=O)[nH]c3ccc(C)cc3c2s1	-3	0.0%	-5%	27%
Cn1c2c(c(O)c(-c3ccccc3)c1=O)C(=O)CC(C)(C)C2	1	2.7%	-8%	15%
Cc1ccc(CS(=O)(=O)CCC(=O)NCCc2ccccc2)cc1	/	-0.5%	-4%	-6%
CCn1c(C)nnc1SCC(=O)Nc1ccccc1OC	/	-2.1%	1%	-2%

An excerpt from above in order of the Rango complex inh value, descending.
SMILES	GLA inh pH 4.5	Rango complex inh	miR-21 FLuc	Rango release inh
O=C(CNC(=O)c1ccc(Cl)cc1)NNC(=O)c1ccc(Br)cc1	/	1.5%	/	1%
CCCCN(Cc1ccco1)C(=O)c1cc2c(=O)[nH]c3ccc(C)cc3c2s1	-3	0.0%	-5%	27%
CCCc1nc2ccccc2c(C(=O)OCC(=O)NCc2ccco2)c1CC	2	-0.8%	10%	10%
Cn1c(SCC2CCCO2)nnc1-c1cccc([N+](=O)[O-])c1 (centres undefined)	4	-3.5%	1%	-3%

New compounds follow.
SMILES	GLA inh pH 4.5	Rango complex inh	miR-21 FLuc	Rango release inh
COc1cccc(N2C(=O)C3CCCN3C2c2ccc(Cl)cc2)c1 (centres undefined)	4	?	-12%	-2%
COc1ccc(-n2nnnc2-c2cn(C)nc2C(F)(F)F)cc1	3	6.1%	5%	-9%
Cc1noc(C)c1CSCC(=O)Nc1ccc(Br)cc1Cl	/	4.3%	/	-13%
CCN1C[C@@H]2[C@@H]3C(=O)N(C)C(=O)[C@@H]3[C@](Cc3ccccc3)(C1=O)N2C(=O)c1ccc(Cl)cc1	/	?	/	-17%
CCOc1ccc(-c2c(C(=O)N/N=C/c3ccsc3)nnn2-c2nonc2N)cc1	/	-0.6%	-2%	1%
CCN1CCN(c2ccc([N+](=O)[O-])cc2S(=O)(=O)N2CCOCC2)CC1	-3	-0.1%	0%	11%
CCOC(=O)Nc1ccc(Cc2ccncc2)cc1	-2	0.2%	-18%	0%
O=C1CSc2ccc(C(=O)N3CCN(c4ccccn4)CC3)cc2N1	-17	-2.3%	0%	-19%
CC(/C=C/c1ccco1)=N/NC(=O)C1COc2ccccc2O1 (centres undefined)	-1	0.2%	19%	-14%
CC(=O)NNC(=S)NCCc1ccccc1	1	-2.1%	-3%	3%
Cc1ccc(/C=N\Nc2cn[nH]c(=O)c2Cl)cc1	1	2.4%	-72%	-5%
COC(=O)C1N[C@@H]([C@@H](NC(=O)COc2ccccc2)C(=O)NCc2ccccc2)SC1(C)C (some centres undefined)	/	-6.0%	/	-24%
COc1ccc(N2C(=O)CSC2c2cccc(OC)c2OC)cc1 (centres undefined)	-10	1.8%	-1%	2%
COC(=O)C1=CN(C)C=C(C(=O)OC)C1c1ccc(Cl)cc1Cl	?	?	0%	?
COc1ccc(N2C(=NC(=O)c3ccccc3)SC3CS(=O)(=O)CC32)cc1 (centres undefined)	/	0.3%	2%	11%
COc1ccc(C2C(C(=O)NCCN(C)C)c3cc(OC)c(OC)cc3C(=O)N2C)cc1OC (centres undefined)	1	-0.4%	-5%	-15%

High-throughput results (PubChem BioAssay)
